# NS1 function inh = qHTS Assay for Inhibitors of Influenza NS1 Protein Function. Potency, µM (top dose mostly 46.1 µM), without a hit: at the top dose activity, positive = more growth. S. cerevisiae slowed by influenza A NS1, growth recovery by OD600. 0.4% of 270,000 active; active means well fitted rising curve with a large enough effect; inconclusive means small, poorly fitted or top-dose-only effect; inactive means no such curve, though single readings can be large or run the other way; note: nearly all actives have a fitted effect of over 50% in size
#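 Recovery from NS1-induced slow growth read by OD600 in budding yeast switched to galactose assay medium (pH 6.0, -URA) at 1:100 dilution. Compound 23 nl per well; the matching strain lacking NS1 serves as control.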
# SARS PLpro yeast = qHTS of Yeast-based Assay for SARS-CoV PLP; S. cerevisiae expressing SARS-CoV PLpro, growth rescue; control for the full effect not named in the record; Potency, µM (top dose mostly 32.9 µM), inactives show at the top dose activity, positive = growth rescue; 0.19% of 330,000 active; active means well fitted rising curve with a large enough effect; inconclusive means small, poorly fitted or top-dose-only effect; inactive means no such curve, though single readings can be large or run the other way; note: 0% is about no effect; nearly all actives have a fitted effect of over 55% in size; growth read by luminescence after 48 h
# Cruzain noTriton = qHTS Assay for Promiscuous and Specific Inhibitors of Cruzain (without detergent) | Cruzipain (Trypanosoma cruzi), P25779 | purified cruzain, Z-FR-AMC fluorescence, no detergent | Potency, µM, inactives show max response, negative = inhibition, most hits filed as inhibitors | 2.3% of 200,000 active;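 note: plate controls were enzyme without inhibitor for no effect and buffer without enzyme for full effect; nearly all actives have a fitted effect of over 40% in size; top concentration of the series not given in the record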
# Target sequence (P25779 123-467 limits assumed): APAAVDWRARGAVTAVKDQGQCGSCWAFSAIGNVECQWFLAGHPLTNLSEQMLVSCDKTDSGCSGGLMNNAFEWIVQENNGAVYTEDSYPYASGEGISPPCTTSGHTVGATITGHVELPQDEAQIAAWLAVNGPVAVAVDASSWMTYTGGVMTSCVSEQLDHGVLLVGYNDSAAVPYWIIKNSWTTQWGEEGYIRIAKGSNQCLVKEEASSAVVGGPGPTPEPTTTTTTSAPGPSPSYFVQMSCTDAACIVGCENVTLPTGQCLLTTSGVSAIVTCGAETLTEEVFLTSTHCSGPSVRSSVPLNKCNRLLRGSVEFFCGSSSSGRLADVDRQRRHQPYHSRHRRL
#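 Purified cruzain at 1.5 nM, pre-incubated 15 min with compound at room temperature in 100 mM sodium acetate pH 5.5, 5 mM DTT, 0.00005% Triton X-100. Reaction started with 2 uM Z-FR-AMC; AMC fluorescence increase over 60 s gives rate.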
# MARV entry inh = qHTS for inhibitors of binding or entry into cells for Marburg Virus; Marburg virus pseudotyped entry inhibition, cell reporter; control for the full effect not named in the record; about a third of the inactives were read at about 46 µM; Potency, µM (highest dose often 37.8 µM), for inactives: at the top dose activity change, negative = inhibition, actives largely listed as inhibitors; 1.8% of 300,000 active; active = well fitted inhibition curve with a large enough effect; inconclusive = small, poorly fitted or top-dose-only effect, or effect the other way; inactive = flat fitted curve, though single readings scatter; tested in HEK293 cells; about a fifth of its hits are not listed in these tables; note: % is set by controls: 0 for no effect and ±100 for the full control effect; luciferase read-out
# Cruzain inh Det = qHTS Assay for Promiscuous and Specific Inhibitors of Cruzain (with detergent); Potency, µM, inactives show max response, negative = inhibition, hits mostly inhibitors; 0.43% of 200,000 active; purified cruzain, Z-FR-AMC fluorescence, 0.01% Triton; AID 1478, 2009; Cruzipain (Trypanosoma cruzi), P25779;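 note: plate controls were neutral wells for no effect and buffer without enzyme for full effect; nearly all actives have a fitted effect of over 40% in size; top concentration of the series not given in the record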
#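 Cruzain (1.5 nM) preincubated 15 min at RT with compound in 100 mM sodium acetate pH 5.5, 5 mM DTT, 0.01% Triton X-100. Reaction started with 2 uM Z-FR-AMC; AMC fluorescence (ex 360/em 450 nm) change over 60 s gave rate.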
# RE007 growth inh = qHTS Assay for Inhibitors of the HIV-1 protein Vpr | S. pombe RE007 Vpr strain, BacTiter-Glo ATP luminescence, 24 h; control for the full effect not named in the record | Potency, µM (series often up to 92.2 µM), inactives show top-dose activity change, negative = less growth | 0.21% of 360,000 active; active = well fitted falling curve with a large enough effect; inconclusive = small, poorly fitted or top-dose-only effect; inactive = no such curve, though single readings can be large or run the other way;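 note: % is set by controls: 0 for no effect and ±100 for the full control effect; nearly all actives have a fitted effect of over 50% in size; the assay follows cell death caused by Vpr and the record does not say whether a fall means rescue or toxicity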
#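 Fission yeast RE007 carrying one integrated HIV-1 vpr copy, seeded at OD 0.01 in PMG+AL medium with 23 nL pinned compound. Grown 24 h at 30 degrees; viability read by BacTiter-Glo luminescence after 5 min.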
# Lassa entry inh = qHTS for Inhibitors of binding or entry into cells for Lassa Virus; Potency, µM (highest dose often 37.9 µM), inactives show at the highest dose activity change, negative = inhibition, actives largely listed as inhibitors; Lassa virus pseudotype entry inhibition, cell reporter; control for the full effect not named in the record; AID 540256, 2011; 1.2% of 300,000 active; active means well fitted inhibition curve with a large enough effect; inconclusive means small, poorly fitted or top-dose-only effect, or effect the other way; inactive means flat fitted curve, though single readings scatter; tested in HEK293 cells; note: % is set by controls: 0 for no effect and ±100 for the full control effect; nearly all actives have a fitted effect of over 50% in size; luciferase read-out
# StopGo reporter = High Throughput Screening for Foot and Mouth Disease Virus Antivirals; human cells with a luciferase reporter of 2A StopGo recoding; control for the full effect not named in the record; Potency, µM (series often up to 57.9 µM), for inactives: at the highest dose signal change, negative = less light; 1.2% of 410,000 active; active = well fitted falling curve with a large enough effect; inconclusive = small, poorly fitted or top-dose-only effect; inactive = no such curve, though single readings can be large or run the other way; tested in HEK293T cells; note: % is set by controls: 0 for no effect and ±100 for the full control effect; nearly all actives have a fitted effect of over 45% in size; luciferase light after 4 h
# * = called active by the depositor; ? = inconclusive; . = no result given; & = joins results of further samples; [ ] = another dose, or the depositor's remark. Unless noted, calls come from the whole dose curve; as a rule, active = well fitted curve in the direction sought with a large enough effect; inconclusive = small, poorly fitted or top-dose-only effect, or another doubt; inactive = no such curve, though single readings can be large; an effect the other way counts as inactive or inconclusive. Potency is the fitted concentration of half-maximal effect.
SMILES,NS1 function inh,SARS PLpro yeast,Cruzain noTriton,MARV entry inh,Cruzain inh Det,RE007 growth inh,Lassa entry inh,StopGo reporter
COc1cccc(C2C(C(=O)Nc3ccccc3OC)=C(C)Nc3nc4ccccc4n32)c1 (stereo not given),.,.,0%,0%[46.1 µM],-8.4%,.,-14%[46.1 µM],?
CSc1ccc(OC2CCCCC2NS(=O)(=O)c2ccc(Cl)cc2)cc1 (stereo not given),-66%,-65%,-7%,6%,-7.4%,26%,-22%,-26%
O=C(COc1ccccc1)Nc1ccccc1F,-16%,3%,.,17%,.,-18%,?,70%[activator]
O=C1NCCN1c1ccccc1,.,.,.,18%,.,10%,?,-4%
Cc1ccc(/C=N/NC(=O)c2csc3c2CCCC3)cc1,-12%,-18%,7%,?,-5.0%,-2%,?,28%
COc1ccc([N+](=O)[O-])cc1NCc1cccc([N+](=O)[O-])c1,.,-2%,.,1%[46.1 µM],.,-5%,?,-11%
Cc1cccc(-c2noc(-c3ccno3)n2)c1,-2%,-1%,.,.,.,?,.,66%[activator]
Cc1ccc(C(=O)N2CCOCC2)cc1Cl,?,0%,-11%,-4%[46.1 µM],1.0%,10%,2%,13%
CCCCn1c(N)c(C(=S)NC(=O)CC(C)C)c(=O)n(C)c1=O,-4%,4%,2%,0%,-4.6%,11%,3%,?
CC1CCN(S(=O)(=O)N2CCC(C(=O)NCc3ccccc3Cl)CC2)CC1,.,.,-16%,.,0.9%,.,-11%[46.1 µM],-18%
Cc1c(/C=N/O)c2ccccn2c1C=O,-2%,-3%,.,.,.,-4%,.,-7%
COP(=O)(OC)C(O)C(Cl)(Cl)Cl (stereo not given),-2%,-12%,13%,3%&3%&3%&3%,5.4%,.,10%,.
COc1ccc(-c2nnc(SCC(=O)NC(=O)NCc3ccccc3)o2)cc1,-1%,3%,?,?,2.8%,1%,27%,5%
O=C(C1CCN(c2nc3ccccc3[nH]2)CC1)N1CCN(c2ccccc2)CC1,.,.,0%,.,-3.0%,.,-3%[46.1 µM],-26%
COc1cc(C)nc(Nc2nc(C)c(C(C)=O)s2)n1,-10%,11%,5%,-14%&-14%,-5.3%,?,17%,-15%
Cc1ccc(NC(=O)c2cc(-c3cccs3)on2)cc1C,.,-1%,-7%,?,-7.8%,14%,?,37%&61%[activator]
C=CCC(CC=C)(C(N)=O)c1ccccc1,2%,1%,.,-9%[46.1 µM],.,10%,12%[46.1 µM],-13%
COC(=O)c1[nH]c2ccc(C)cc2c1NC(=O)Oc1ccccc1,-6%,-2%,-11%,?,-4.0%,1%,?,12%
CCCC(O)(CCC)C(=O)NN(C(=O)CCl)c1ccccc1,-1%,-16%,-13%,?,4.1%,-3%,?,?
CN(CC(=O)Nc1cccc(F)c1)C(=O)c1cccnc1Sc1ccccc1,.,-2%,.,-4%,.,53%,?,-6%
Cc1nc(C(=O)Nc2ccc(Cl)cc2)nn1-c1ccc([N+](=O)[O-])cc1,-3%,0%,-2%,3%,2.2%,13%,-9%,-9%
COc1ccc2c(c1)nc(NCCCO)n2Cc1ccccc1,0%,2%,.,6%[46.1 µM],.,-28%,-11%,-10%
CCOc1ccccc1N(CC(=O)Nc1cccc(OC)c1)S(=O)(=O)c1ccccc1,11%,-3%,.,?,.,-2%,?,-6%
Cc1oc(-c2ccccc2)cc1C(=O)NCc1ccncc1,-3%,0%,.,.,.,-14%,.,-26%
COc1cc(NC(=O)c2cccc([N+](=O)[O-])c2)ccc1NC(=O)c1cc2ccccc2o1,3%,0%,.,9%[46.1 µM],.,3%,0%[46.1 µM],9%
Fc1ccc(COc2ccc(-c3nnco3)cc2)c(Cl)c1,-35%,-28%,.,-24%,.,-7%,?,11%
CC(=O)N1N=C2C3CCN(CC3)C2C1c1ccc(Br)cc1 (stereo not given),7%,5%,.,.,.,-6%,.,6%
COC(=O)C(O)(c1ccc(NC(=O)c2cccs2)cc1)C(F)(F)F (stereo not given),-2%,0%,.,.,.,-3%,.,61%[activator]
CC1(C)CC(CCN(Cc2ccccc2)C(=O)c2ccco2)(c2ccccc2)CCO1 (stereo not given),-24%,-42%,?,-1%,-8.6%,9%,.,?
CC(NC(=O)C(=O)N1CCCCC1)C(c1cccs1)N1CCN(C)CC1 (stereo not given),11%,2%,.,20%[46.1 µM],.,-5%,17%[46.1 µM],-3%
COc1ccc(-c2csc3ncnc(N4CCN(c5ccccc5[N+](=O)[O-])CC4)c23)cc1,?,5%,.,?,.,-4%,?,?
Cc1nnc(Nc2ccc3c(c2)ncn3C)c2ccccc12,-4%,-5%,-7%,1%,-3.4%,0%,1%,21%
Cc1ccc(C(C)C)c(OCC(=O)NNC(=O)Nc2ccccc2)c1,.,.,.,?,.,-6%,0%,-27%
CC(C)(C)NC(=O)NC(=O)CSc1nnc(COc2ccccc2Cl)o1,2%,-2%,3%,?,0.1%,24%,3%,12%
O=C(CSc1nnc(CNC(=O)c2ccccc2F)o1)c1ccc(Cl)cc1,2%,3%,-2%,1%,-1.6%,-19%,4%,-29%
CCN1CCN(c2ncnc3c2cnn3-c2ccc(C)cc2C)CC1,2%,-2%,.,.,.,1%,.,-9%
Cc1ccc(-n2c(-c3cnccn3)n[nH]c2=S)c(Br)c1,1%,0%,.,?,.,0%,8%[46.1 µM],13%
C=CCN1CCC2(C)c3cc(O)ccc3CC1C2C (stereo not given),3%,.,3%,.,-2.9%,2%[18.4 µM],.,-10%&7%
Cn1ncc(Cl)c1C(=O)N1CCN(C(=O)c2ccco2)CC1,-7%,0%,.,-4%,.,1%,0%,-16%
Cn1c(NC(=O)C2CCCO2)cc(=O)n(C)c1=O (stereo not given),6%,5%,16%,-1%,1.8%,8%,7%,.
O=C(c1ccc(F)cc1)c1c[nH]c(C(=O)NCCCN2CCOCC2)c1,-6%,-1%,-13%,7%,0.1%,-15%,-16%,-6%
O=C(OCC(=O)c1c[nH]c2ccccc12)c1ccc([N+](=O)[O-])s1,-56%,-6%,.,2%,.,?,-10%[46.1 µM],-1%
Cc1cccc(NC(=O)CNC(=O)CSc2nc(N)cc(N)n2)c1C,.,-2%,.,14%[46.1 µM],.,29%,14%,-23%
N#C/C(=C/Nc1ccccc1)c1ccsc1,3%,.,-8%,-38%,-6.8%,5%,-13%,-9%
CS(=O)(=O)c1nncn1-c1ccccc1,4%,5%,-15%,10%,0.1%,2%,2%,0%
Cc1ccccc1C(=O)Nc1ccccc1C(=O)NCC(C)C,-4%,-5%,.,.,.,-7%,.,-21%
O=C(NCCNC1CCC(c2ccccc2)CC1)c1ccc(F)cc1 (stereo not given),-1%,0%,.,?,.,-10%,-28%,9%
Cc1nn(C(C)C(=O)NCCCc2ccccc2)c(=O)c2nn(-c3ccccc3)c(C)c12 (stereo not given),12%,3%,.,-11%[46.1 µM],.,2%,?,?
COc1cc(NC(=S)N2CCC(C(O)(c3ccccc3)c3ccccc3)CC2)cc(OC)c1,4.5µM*,11%,10%,?,-0.7%,-11%,?,-4%
COc1ccccc1C(=O)Nc1ccnn1C1CCN(CCCC2CCCC2)CC1,-12%,1%,.,.,.,-14%,.,-2%
CC(C)Nc1nc(Oc2ccc(Cl)cc2Cl)cc(C(F)(F)F)n1,5%,-24%,-7%,-16%,-12%,1%[3.69 µM],5%,-14%
COC(=O)CCCCC1SCC2NC(=O)NC21O (stereo not given),0%,0%,1%,?,-5.6%,2%,12%,-22%
CCN(C(=O)c1cccs1)C1CCS(=O)(=O)C1 (stereo not given),.,3%,.,20%[46.1 µM],.,1%,2%,-25%
COc1ccc(NCc2nnc(SCc3ccccc3)n2-c2ccc(OC)cc2)cc1,11%,-6%,-1%,-4%,-1.3%,-14%,-27%,-14%
COC(=O)c1cc2sc(Cl)cc2n1CC(=O)NCC1CCCO1 (stereo not given),-51%,0%,2%,?,-2.4%,-15%,-1%,-17%
CCOc1ccccc1N(CC(=O)NC1CCCCC1)C(=O)CNC(=O)c1ccco1,-2%,9%,10%,-2%,-1.7%,4%,13%,-8%
NC(Cc1ccccc1)C(=O)N1CCCCC1 (stereo not given),4%,0%,.,-14%[46.1 µM],.,18%,-1%[46.1 µM],-5%
COc1ccc(NC(=O)C2CCN(c3nc(C)cc(C)n3)CC2)cc1,9%,29%,?,0%[46.1 µM],-0.4%,-27%,-7%,2%
CCCCNC(=S)Nc1cc([N+](=O)[O-])ccc1C,8%,-6%,4%,?,2.4%,-5%,-2%,9%
NC(=O)C(c1ccc(Cl)cc1)c1ncc(C(F)(F)F)cc1Cl (stereo not given),20%,-2%,-6%,4%,-3.5%,8%,-2%,?
# Continued.
SMILES,NS1 function inh,SARS PLpro yeast,Cruzain noTriton,MARV entry inh,Cruzain inh Det,RE007 growth inh,Lassa entry inh,StopGo reporter
NS(=O)(=O)c1ccc(NC(=O)c2cccc(N3C(=O)c4ccccc4C3=O)c2)cc1,0%,-1%,.,-5%[46.1 µM],.,11%,-5%,-18%
CCOc1ccccc1NC(=O)CN1C(=O)COc2ccc(S(=O)(=O)N3CCOCC3)cc21,-1%,0%,-8%,10%&10%[46.1 µM],-0.2%,14%,?,2%&4%
COc1cc(/C=C2/NC(=O)NC2=O)cc(Br)c1OCc1ccc(C(=O)O)cc1,.,1%,.,5%[46.1 µM],.,-19%,19%,8%
O=[N+]([O-])c1cc(C(F)(F)F)ccc1N/N=C/c1cc2ccccc2nc1Cl,-2%,-1%,-22%,.,1.5%,.,.,.
O=C(COC(=O)/C=C/c1cccc(F)c1)Nc1ccccc1-c1ccccc1,-3%,12%,-1%,5%,-7.9%,-15%,1%,-16%
COc1cc(CN2CCN(CC#Cc3ccccc3)CC2CCO)cc(OC)c1 (stereo not given),-11%,0%,.,.,.,-24%,.,-6%

# Assay outcomes (PubChem BioAssay)
